Assay outcomes as filed in PubChem BioAssay.
PINK1 modulator: changes PINK1 expression; Potency, µM (titrated, usually from 76.6 µM), for the others: at the highest dose activation (PINK1 increase), most hits filed as activators; 0.2% of 410,000 active; PINK1 immunofluorescence, high-content cytometry, 24 h; active = well fitted activation curve with a large enough effect; inconclusive = small, poorly fitted or top-dose-only effect; inactive = flat fitted curve, though single readings scatter; cell line not stated here;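 further: potency means the concentration at half of the fitted maximal effect; % of control where 0% means no effect; nearly all actives have a fitted effect of over 65% in size; a mitochondrial uncoupler was the plate control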
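Measures PINK1 amount and localization on or inside mitochondria by immunofluorescence. Stable cells get compounds at 5 concentrations for 24 hours before fixation and staining; CCCP controls included.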
D2 ag: activates the human D2 dopamine receptor; 0.084% of 360,000 active; P14416; activation, % (test concentration not listed); DiscoveRx PathHunter D2 beta-arrestin, luminescence, 90 min; 100% = 57 uM dopamine signal; in the data active = activation above about 40%; inconclusive = about 15% to 40%; inactive = below about 15%; further: compound concentration not given in the record; the text of the record calls up to 30% inactive
Target sequence (P14416 whole entry, looked up): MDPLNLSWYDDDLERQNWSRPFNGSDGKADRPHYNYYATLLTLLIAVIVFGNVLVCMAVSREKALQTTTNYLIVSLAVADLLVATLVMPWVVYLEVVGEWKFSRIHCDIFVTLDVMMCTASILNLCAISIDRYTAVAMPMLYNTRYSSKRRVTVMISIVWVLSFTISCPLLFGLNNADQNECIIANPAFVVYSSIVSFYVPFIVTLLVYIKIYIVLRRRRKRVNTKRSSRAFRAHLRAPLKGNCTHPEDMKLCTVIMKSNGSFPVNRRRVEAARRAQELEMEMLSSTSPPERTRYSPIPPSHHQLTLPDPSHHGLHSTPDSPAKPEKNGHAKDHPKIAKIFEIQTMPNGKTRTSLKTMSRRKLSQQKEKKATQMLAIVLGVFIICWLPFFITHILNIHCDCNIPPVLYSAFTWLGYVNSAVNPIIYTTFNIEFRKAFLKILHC
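Agonist mode: compounds alone added to overnight-plated D2 PathHunter cells for 90 min at 37 C, with 57 uM final dopamine (EC100) defining full response. Beta-arrestin recruitment detected by chemiluminescent reagent, read after 1 h at ambient temperature.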
Six1-Eya2 inh: Six1/Eya2 interaction inhibition; Q15475+O00167; AlphaScreen GST-Six1/His-Eya2 binding, biochemical; hits give low values; control for the full effect not named in the record; 0.56% of 360,000 active; activity change, % (concentration not given with the values); in the data active = activity change below about -65%; inconclusive = about -30% to -65%; inactive = above about -30%; further: on the % scale 0 is the no-effect control and ±100 the full control effect
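GST-Six1 + His-Eya2 (5X stock: 250/500 nM); Tris pH 8.0, 300 mM NaCl, 0.05% BSA, 0.02% Tween 20; GSH donor/Ni acceptor beads; 1 h 37 °C dark; AlphaScreen readout.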
D2 PAM: potentiates the human D2 dopamine receptor allosterically; AID 624464; P14416; potentiation, % (test concentration not listed); DiscoveRx D2 beta-arrestin cells, luminescence, 90 min; 100% = 57 uM dopamine signal; 0.23% of 360,000 active; active = potentiation of 50% or more; inconclusive = 30% to 50%; inactive = 30% or less;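 further: compound concentration not given in the record; tested on top of an EC20 dose of dopamine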
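PathHunter beta-arrestin assay in DiscoveRx D2 cells. Compounds were added with an EC20 of dopamine (50 nM final) for 90 min at 37 deg C. Luminescence was read 1 h after detection reagent, with 57 uM dopamine as the EC100 control.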
TRPML1 agonist: activates the human TRPML1 channel | 0.12% of 410,000 active | Q9GZU1 | TRPML1-expressing cells, Ca2+ dye fluorescence, FDSS; host cell line not named in the record; reference of the full effect not given here | activation, % (concentration not given with the values) | AID 624414; in the data active = activation above about 50%; inconclusive = about 30% to 50%; inactive = below about 30%; further: 0% is about no effect; the text of the record puts the active cut at 80%
Target sequence (Q9GZU1 whole entry, looked up): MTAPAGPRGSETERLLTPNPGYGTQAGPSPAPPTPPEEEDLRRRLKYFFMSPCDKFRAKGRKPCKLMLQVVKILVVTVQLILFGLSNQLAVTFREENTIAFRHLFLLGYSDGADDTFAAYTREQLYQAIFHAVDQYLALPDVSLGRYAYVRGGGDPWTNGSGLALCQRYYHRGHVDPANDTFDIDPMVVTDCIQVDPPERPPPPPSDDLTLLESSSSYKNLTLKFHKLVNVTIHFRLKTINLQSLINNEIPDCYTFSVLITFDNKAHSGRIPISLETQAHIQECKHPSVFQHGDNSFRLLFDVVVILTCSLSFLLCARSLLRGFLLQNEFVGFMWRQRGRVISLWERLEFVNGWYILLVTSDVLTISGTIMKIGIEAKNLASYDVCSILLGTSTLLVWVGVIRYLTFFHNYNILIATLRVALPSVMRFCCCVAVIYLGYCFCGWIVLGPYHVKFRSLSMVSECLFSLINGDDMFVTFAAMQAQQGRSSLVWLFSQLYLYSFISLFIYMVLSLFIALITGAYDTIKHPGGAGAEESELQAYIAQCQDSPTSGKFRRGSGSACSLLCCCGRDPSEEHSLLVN
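Calcium fluorescence on an FDSS kinetic reader gave the read-out. Tet-induced TRPML1-DL cells were plated overnight, dye-loaded (Ca8 with quencher, 45-90 min, room temperature, dark), then read 110 s after compound addition, and again 110 s after 4uM final 54-4 (EC80).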
TRPML1 blocker: blocks the human TRPML1 channel. activity change, negative = inhibition, % (test concentration not listed). 0.02% of 390,000 active. TRPML1-inducible cells, Ca2+ dye fluorescence, FDSS; hits give low values; inhibition of EC80 agonist-evoked calcium signal. AID 624415. Q9GZU1; in the data active means activity change below about -50%; inconclusive means about -30% to -50%; inactive means above about -30%;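 further: stimulus is agonist 54-4 at its EC80 concentration; on the % scale 0 is the no-effect control and ±100 the full control effect; compound concentration not given in the record; the text of the record puts the active cut at -80%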
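Calcium fluorescence in TRPML1-DL cells induced overnight with Tet: a 110 s read after compound pin addition, then a 110 s antagonist read after challenge with 54-4 at 4 uM final (EC80).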
* = called active by the depositor; [ ] = dose if it differs, or a comment.

What do the screens show for `O=C(CC1C[C@H](C(=O)N2CCOCC2)[C@@]2(CCC3CCCC3)c3[nH]c4ccccc4c3CCN2C1=O)NCC12CC3CC(CC(C3)C1)C2` (stereo not given in full)?
PINK1 modulator: 2.5%; D2 ag: -0.6; Six1-Eya2 inh: -5; TRPML1 agonist: -0.5; TRPML1 blocker: 17

What do the screens show for `Cc1cc(C(=O)Nc2ccc(OCc3ccccc3)cc2)c(C)o1`?
PINK1 modulator: -0.5%; D2 ag: -4.3; Six1-Eya2 inh: -4; D2 PAM: -2; TRPML1 agonist: 1.0; TRPML1 blocker: 24

How did CCN(C(=O)COC(=O)c1cc(-c2ccccc2)nc2c1c(C)nn2-c1ccccc1)C1CCS(=O)(=O)C1 (stereo not given) do in these assays?
PINK1 modulator: 3.2%; D2 ag: -0.5; Six1-Eya2 inh: 18; D2 PAM: 1; TRPML1 agonist: 0.6; TRPML1 blocker: -8

How did CC(Oc1ncnc2ccccc12)C(=O)Nc1cccc(S(=O)(=O)N2CCOCC2)c1 (stereo not given) do in these assays?
PINK1 modulator: 1.1%; D2 ag: -0.8; Six1-Eya2 inh: -2; D2 PAM: -6; TRPML1 agonist: 0.5; TRPML1 blocker: 34

Results for Cc1ccc2c(Cl)cc(Cl)c(OCC(=O)O)c2n1 ?
PINK1 modulator: 0.4%; D2 ag: -4.5; Six1-Eya2 inh: 4; D2 PAM: 6; TRPML1 agonist: 0.4; TRPML1 blocker: 24

Results for CC(=O)N1CCN(c2nc(CC(C)C)c3c(c2C#N)CCC3)CC1 ?
PINK1 modulator: -1.0%; D2 ag: -4.7; Six1-Eya2 inh: -10; D2 PAM: -1; TRPML1 agonist: -0.2; TRPML1 blocker: 34

Results for CC(C)NC(=O)C1(C)CCN1C(=O)c1c(F)cccc1F (stereo not given) ?
PINK1 modulator: 2.4%; D2 ag: -2.9; Six1-Eya2 inh: 6; D2 PAM: 13; TRPML1 agonist: -0.2

How did Cc1ccc(S(=O)(=O)Oc2ccccc2/C=C2\SC(=O)NC2=O)cc1 do in these assays?
PINK1 modulator: -0.1%; D2 ag: 2.2; Six1-Eya2 inh: 8; D2 PAM: 3; TRPML1 agonist: -0.1; TRPML1 blocker: 1

How did CCC1CSC(Nc2ccc(C(=O)/C=C/c3cccc(C)c3)cc2)=N1 (stereo not given) do in these assays?
PINK1 modulator: -0.6%; D2 ag: -3.6; Six1-Eya2 inh: -5; D2 PAM: -2; TRPML1 agonist: 1.6; TRPML1 blocker: 42

How did CCCN(CC(=O)Nc1ccccc1C)C(=O)CCN1C(=O)c2cccc([N+](=O)[O-])c2C1=O do in these assays?
PINK1 modulator: 4.8%; D2 ag: -1.7; Six1-Eya2 inh: 8; D2 PAM: 25; TRPML1 agonist: -0.5; TRPML1 blocker: -8

Results for CCOCCCNC(=O)c1c(NC(=O)Cc2coc3c(C)c(C)ccc23)sc2c1CCC2 ?
PINK1 modulator: 2.2%; TRPML1 agonist: 0.6; TRPML1 blocker: -4

What do the screens show for `CC(=O)Nc1ccc(N(C(=O)Cc2c[nH]c3ccccc23)C(C(=O)NC2CCCCC2)c2ccco2)cc1` (stereo not given)?
PINK1 modulator: 0.1%; D2 ag: -2.0; Six1-Eya2 inh: -20; D2 PAM: -8; TRPML1 agonist: 1.5; TRPML1 blocker: -16

What do the screens show for `CCc1cc(=O)n2[nH]c(C)c(-c3ccccc3OC)c2n1`?
PINK1 modulator: -1.2%; D2 ag: -5.7; Six1-Eya2 inh: 5; D2 PAM: -15; TRPML1 agonist: -0.1; TRPML1 blocker: -2

How did COc1cccc(CNC(=O)CCNC(=O)c2ccc(Br)o2)c1 do in these assays?
PINK1 modulator: 1.3%; D2 ag: 3.9; Six1-Eya2 inh: 0; D2 PAM: -3; TRPML1 agonist: 0.6; TRPML1 blocker: 30

What do the screens show for `CCCSc1nnc(NC(=O)Cc2ccc(OC)c(OC)c2)s1`?
PINK1 modulator: 4.9%; D2 ag: -1.7; Six1-Eya2 inh: -3; D2 PAM: 7; TRPML1 agonist: 0.0; TRPML1 blocker: 14

Results for O=C(O)c1ccc(CS(=O)c2cccc(C(F)(F)F)c2)o1 (stereo not given) ?
PINK1 modulator: -1.3%[38.3 µM]; D2 ag: 0.8; Six1-Eya2 inh: 1; D2 PAM: 0; TRPML1 agonist: 0.6; TRPML1 blocker: -7

How did COc1ccc(NC(=S)Nc2cccc3cnccc23)cc1 do in these assays?
PINK1 modulator: 1.1%; D2 ag: 5.2; Six1-Eya2 inh: -3; D2 PAM: 9; TRPML1 agonist: 0.0; TRPML1 blocker: 0

How did CCOc1cc(-c2nnc(SCC(=O)NC3CCCCC3)nc2-c2ccc(OC)c(OCC)c2)ccc1OC do in these assays?
PINK1 modulator: 1.2%; TRPML1 agonist: 0.7; TRPML1 blocker: -2

What do the screens show for `COc1ccccc1N1CCN(C(=O)Nc2ccc(F)c(Cl)c2)CC1`?
PINK1 modulator: 1.0%; D2 ag: -1.9; Six1-Eya2 inh: 2; D2 PAM: -8; TRPML1 agonist: 0.1; TRPML1 blocker: 0

What do the screens show for `Nn1c(Cc2cccc3ccccc23)n[nH]c1=S`?
PINK1 modulator: 0.0%; D2 ag: 5.2; Six1-Eya2 inh: 3; D2 PAM: -18; TRPML1 agonist: 0.7; TRPML1 blocker: -3

Compounds above with a Cl atom, in the order listed:
Results for Cc1ccc2c(Cl)cc(Cl)c(OCC(=O)O)c2n1 ?
PINK1 modulator: 0.4%; D2 ag: -4.5; Six1-Eya2 inh: 4; D2 PAM: 6; TRPML1 agonist: 0.4; TRPML1 blocker: 24

What do the screens show for `COc1ccccc1N1CCN(C(=O)Nc2ccc(F)c(Cl)c2)CC1`?
PINK1 modulator: 1.0%; D2 ag: -1.9; Six1-Eya2 inh: 2; D2 PAM: -8; TRPML1 agonist: 0.1; TRPML1 blocker: 0

Going on with the list:
How did CC(C)c1cc(C(C)C)c(S(=O)(=O)NC(c2ccccn2)C23CC2C3)c(C(C)C)c1 (stereo not given) do in these assays?
PINK1 modulator: inconclusive; Six1-Eya2 inh: -8; TRPML1 agonist: -0.1

Results for Cc1ccsc1CN(C)C(=O)c1cc(S(=O)(=O)N2CCOCC2)ccc1N1CCCC1 ?
PINK1 modulator: 0.1%; D2 ag: 0.0; Six1-Eya2 inh: 5; D2 PAM: 1; TRPML1 agonist: 0.2; TRPML1 blocker: 6

How did CC[C@]12c3[nH]c4ccc(OC)cc4c3CCN1C(=O)C(CC(=O)NCCN1CCOCC1)C[C@@H]2C(=O)N1CCN(C(=O)C2CC2)CC1 (stereo not given in full) do in these assays?
PINK1 modulator: -0.3%; D2 ag: -0.9; Six1-Eya2 inh: 4; TRPML1 agonist: -0.8; TRPML1 blocker: -16

Results for S=C(Nc1ccccc1Cl)NC1CCC(NC(=S)Nc2ccccc2Cl)CC1 (stereo not given) ?
PINK1 modulator: 7.2%; D2 ag: 2.1; Six1-Eya2 inh: 6; D2 PAM: -23; TRPML1 agonist: 0.0; TRPML1 blocker: -3

What do the screens show for `CCOC(=O)C1=C[C@@H](C(C)C)N(S(=O)(=O)c2ccc(C)cc2)[C@H]1c1ccc(C(F)(F)F)cc1`?
PINK1 modulator: 0.9%; D2 ag: -3.6; Six1-Eya2 inh: 0; D2 PAM: 5; TRPML1 agonist: -0.5

How did O=C1CC2CCCC(C1)S2=O (stereo not given) do in these assays?
PINK1 modulator: 1.2%; D2 ag: 1.7; Six1-Eya2 inh: 7; D2 PAM: -4; TRPML1 agonist: 1.3; TRPML1 blocker: 2

How did CC(C)(C)C(=O)Nc1cc2c3c(c1)CCC(=O)N3CCC2 do in these assays?
PINK1 modulator: -0.5%; D2 ag: 4.2; Six1-Eya2 inh: -11; D2 PAM: -6; TRPML1 agonist: 0.1; TRPML1 blocker: -14

Results for CCC1CCCCN1C(=O)CSc1nc2c([nH]c3ccccc32)c(=O)n1-c1ccc(OC)cc1 (stereo not given) ?
PINK1 modulator: -5.0%; TRPML1 agonist: 1.4; TRPML1 blocker: 5

What do the screens show for `C#CCN(C[C@@H]1[C@@H](OC(=O)NC2CCCC2)[C@@H](OC(=O)NC2CCCC2)Cn2c(=O)ccc(=O)n21)S(=O)(=O)c1ccc(C)cc1`?
PINK1 modulator: -1.0%; D2 ag: -7.2; Six1-Eya2 inh: 0; D2 PAM: -5; TRPML1 agonist: 0.9; TRPML1 blocker: 19

How did COc1ccc(NC(=O)COC(=O)c2ccc(NS(=O)(=O)/C=C/c3ccccc3)cc2)cc1 do in these assays?
PINK1 modulator: 0.9%; D2 ag: -8.1; Six1-Eya2 inh: -27; D2 PAM: -1; TRPML1 agonist: -0.4; TRPML1 blocker: 3

What do the screens show for `O=C(CN1CCN(c2ccccc2)CC1)Nc1ccccc1C(=O)NCCc1ccccc1`?
PINK1 modulator: -1.3%; D2 ag: 0.7; Six1-Eya2 inh: -2; D2 PAM: -14; TRPML1 agonist: -0.7; TRPML1 blocker: 13

How did Cc1ccc(OCC(=O)N2CCCCC2)c(Br)c1 do in these assays?
PINK1 modulator: 15%[38.3 µM]; D2 ag: -2.1; Six1-Eya2 inh: 1; D2 PAM: -15; TRPML1 agonist: 1.6; TRPML1 blocker: 14

How did CCOc1cc(N2CCOCC2)c(OCC)cc1NC(=O)CN1CCCC1 do in these assays?
PINK1 modulator: -2.2%; D2 ag: -1.0; Six1-Eya2 inh: 5; D2 PAM: -20; TRPML1 agonist: 0.0; TRPML1 blocker: inconclusive

What do the screens show for `O=C(COc1c(Br)cc(Br)c2cccnc12)N1CCc2ccccc2C1`?
PINK1 modulator: inconclusive; D2 ag: 0.0; Six1-Eya2 inh: -17; D2 PAM: -6; TRPML1 agonist: 0.6; TRPML1 blocker: 5

How did CCn1c(C)c2c(C)nnc(C)c2c1C do in these assays?
PINK1 modulator: 0.1%; D2 ag: -3.0; Six1-Eya2 inh: -5; D2 PAM: -3; TRPML1 agonist: -0.8; TRPML1 blocker: 5

Results for O=C(Nc1ccccc1)c1ccn[nH]1 ?
PINK1 modulator: -0.4%; D2 ag: -4.2; Six1-Eya2 inh: 15; D2 PAM: -8; TRPML1 agonist: 1.6; TRPML1 blocker: 22

Results for CCOC(=O)c1cc(NC(=O)c2ccccc2)c(=O)n2c1oc1ccc(Cl)cc12 ?
PINK1 modulator: 0.5%; TRPML1 agonist: -0.5; TRPML1 blocker: -1

How did O=C1/C(=C\c2ccc(O)c(O)c2)C(c2ccccc2)=NN1c1ccccc1 do in these assays?
PINK1 modulator: 8.2%; D2 ag: 7.4; Six1-Eya2 inh: -17; D2 PAM: 2; TRPML1 agonist: -0.2; TRPML1 blocker: -13

Quoted at random: 2 entries already listed
What do the screens show for `O=C(COc1c(Br)cc(Br)c2cccnc12)N1CCc2ccccc2C1`?
PINK1 modulator: inconclusive; D2 ag: 0.0; Six1-Eya2 inh: -17; D2 PAM: -6; TRPML1 agonist: 0.6; TRPML1 blocker: 5

How did CC[C@]12c3[nH]c4ccc(OC)cc4c3CCN1C(=O)C(CC(=O)NCCN1CCOCC1)C[C@@H]2C(=O)N1CCN(C(=O)C2CC2)CC1 (stereo not given in full) do in these assays?
PINK1 modulator: -0.3%; D2 ag: -0.9; Six1-Eya2 inh: 4; TRPML1 agonist: -0.8; TRPML1 blocker: -16
